Rce1 inh: blocks yeast Ras-converting enzyme; Q03530; yeast membranes, quenched prenylated peptide cleavage fluorescence; calls only; hit rate 0.27% among 290,000; AID 2563;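 active means fall in fluorescence gain of 50% or more versus controls, with final raw signal at or below 3038400; inconclusive means same 50% fall but final raw signal above 3038400; inactive means fall in fluorescence gain under 50%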;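 further: plate controls were neutral control wells for no effect and wells lacking membranes for full effect; tested at 10 µM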
Target sequence (Q03530 whole entry, looked up): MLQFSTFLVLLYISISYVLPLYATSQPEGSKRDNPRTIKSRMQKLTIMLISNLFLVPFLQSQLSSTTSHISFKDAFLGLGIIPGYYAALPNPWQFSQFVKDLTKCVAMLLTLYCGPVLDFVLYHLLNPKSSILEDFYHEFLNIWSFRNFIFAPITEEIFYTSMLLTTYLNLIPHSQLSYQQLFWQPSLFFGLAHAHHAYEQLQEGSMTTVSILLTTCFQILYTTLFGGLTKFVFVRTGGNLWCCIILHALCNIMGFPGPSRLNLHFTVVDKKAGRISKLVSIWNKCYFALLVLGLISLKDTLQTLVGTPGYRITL
MT1-MMP act inh: MT1-MMP (human) activation inhibition | HT1080 RFP-PRO-GFP cells, GFP/RFP ratio fluorescence, overnight; percent of plate control window, DMSO zero | hit rate 0.061% among 360,000 | GFP/RFP ratio change, % at 20 µM | AID 651647;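 active means GFP/RFP ratio change of at least 30% with cell ATP level not reduced by more than half and red fluorescence within 50% of control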; further: strong numbers were not always called active
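Read-out: GFP/RFP fluorescence ratio; Test system: RFP-PRO-GFP reporter HT1080 cells; Compound dosing: single-point 20 µM compound, 1% DMSO; Times: overnight compound exposure at 37 °C.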
UUG fidelity: alters start codon recognition fidelity in yeast; hit rate 0.13% among 350,000; AID 602363; S. cerevisiae UUG-firefly luciferase reporter, luminescence/redox ratio; activity score, % at 18.7 µM;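 active means replicate mean at a twofold rise or more, about +100% in these data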;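 further: firefly luciferase made from a UUG start codon reports start codon fidelity; reporter light over untreated wells divided by growth signal over untreated wells; some hits fall short of that in this replicate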
Env fusion inh: HIV envelope-mediated fusion inhibition; HeLa-JRFL Env/CEM21 cell fusion, luciferase; inhibition, % at 12.3 µM; hit rate 1.1% among 360,000;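 active means mean replicate inhibition score of at least 50 and every replicate individually at or above 50; inconclusive means only one of the two criteria met; inactive means mean below 50 and not all replicates reaching 50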;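 further: 0% = plate neutral controls and 100% = maraviroc near 300 nM; one replicate is shown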
CSC inhib: blocks cancer stem cells; cancer stem cell-like cells viability, luminescence; inhibition, % at 7.5 µM; hit rate 1.1% among 300,000; AID 2717;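 active means mean at 75% or more and at least half the replicates too; inconclusive means mean and replicates disagree; tested in HMLE shEcad cells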;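 further: 0% = median of negative and 100% = median of positive control wells; the first replicate is given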
eIF4H inh: inhibitors of RNA binding by human eIF4H; inhibition, % at 35 µM; hit rate 0.94% among 290,000; eIF4H fluorescence polarization binding assay;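 active means 50% or more with normal probe brightness, or confirmed in later tests; inconclusive means above 50% with abnormal brightness, or retests that disagree; inactive means below 50% or failed in later tests; about a fifth of its hits are not listed in these tables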;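 further: calls also rest on retests at 20 µM and on dose response follow-up; 0% = protein and probe with vehicle and 100% = probe without protein; strong numbers were not always called active; many hits fall short of the cut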
PABP FP inh: blocks human PABP binding to poly(A) RNA; inhibition, % at 35 µM; fluorescence polarization; AID 2014; hit rate 1% among 290,000;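 active means 50% or more with normal probe brightness, or confirmed in later tests; inconclusive means above 50% with abnormal brightness, or retests that disagree; inactive means below 50% or failed in later tests; about a fifth of its hits are not listed in these tables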;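 further: calls also rest on retests at 20 µM and on dose response follow-up; controls were probe without protein and protein plus probe with vehicle; some compounds called inactive have numbers as strong as hits; many hits fall short of the cut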
Target sequence (P11940 whole entry, looked up): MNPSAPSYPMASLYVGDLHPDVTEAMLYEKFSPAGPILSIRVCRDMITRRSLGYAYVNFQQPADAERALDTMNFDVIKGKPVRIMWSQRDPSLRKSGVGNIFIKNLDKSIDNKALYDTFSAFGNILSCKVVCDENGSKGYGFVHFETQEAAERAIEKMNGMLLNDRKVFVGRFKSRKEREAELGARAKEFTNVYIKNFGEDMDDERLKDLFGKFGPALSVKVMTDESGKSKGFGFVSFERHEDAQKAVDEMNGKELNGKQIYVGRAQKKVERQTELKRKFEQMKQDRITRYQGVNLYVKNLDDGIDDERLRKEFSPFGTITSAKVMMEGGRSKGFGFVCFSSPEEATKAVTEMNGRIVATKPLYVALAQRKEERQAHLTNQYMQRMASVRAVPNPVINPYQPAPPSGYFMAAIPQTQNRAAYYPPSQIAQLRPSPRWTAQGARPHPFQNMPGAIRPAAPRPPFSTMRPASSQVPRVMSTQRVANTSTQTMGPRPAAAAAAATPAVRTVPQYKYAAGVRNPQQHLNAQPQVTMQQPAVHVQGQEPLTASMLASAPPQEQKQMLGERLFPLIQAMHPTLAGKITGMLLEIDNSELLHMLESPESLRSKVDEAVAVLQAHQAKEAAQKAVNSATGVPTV
MT1-MMP act inh RFP: recorded beside MT1-MMP act inh, whose call it bears; RFP signal change, %; measured here: RFP expression control read;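 0 = vehicle wells; hits needed this value within 50% of zero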
* hit, by the source's call; i = inactive; ? = inconclusive; · = not tested or not shown; & = joins results of further samples.

SMILES	Rce1 inh	MT1-MMP act inh	MT1-MMP act inh RFP	UUG fidelity	Env fusion inh	CSC inhib	eIF4H inh	PABP FP inh
CC1CCN(S(=O)(=O)c2ccc3c(ccn3CC(=O)O)c2)CC1	i	-1.2	-1.1	-2.8	-15.4	-3.5	-10.3	1.1
Cc1cc(C(=O)CN2C(=O)NC(c3ccccc3)(c3ccccc3)C2=O)c(C)n1Cc1ccco1	i	-7.8	-7.8	·	-68.1	-5.0	-5.3	-11.8
CCC(C(=O)OCC(=O)Nc1ccc(C(=O)Nc2ccc(OC)cc2)cc1)c1ccccc1 (centres undefined)	·	7.8	6.1	·	2.2	-3.7	-0.4	5.6
COC(=O)c1ccccc1OC(=O)c1cc2ccccc2oc1=O	i	0.8	3.4	-17.4	-13.2	0.3	9.4	-9.0
Cc1ccc(-c2nc3ncccc3o2)cc1NC(=O)c1cccs1	i	-1.0	0.5	·	-19.4	14.5	-9.7	-7.4
O=C(Nc1ccc2c(c1)C(=O)OC2)c1ccc(Cl)cc1	i	0.6	0.3	11.3	-19.3	2.7	-9.3	-0.5
CCC(C)N(C(=O)Cn1cnc2c1c(=O)n(C)c(=O)n2C)C1CCS(=O)(=O)C1 (centres undefined)	i	1.7	1.4	-15.4	·	-12.0	·	·
Cc1c(N2C(=O)/C(=C/C3CC=CCC3)SC2=S)c(=O)n(-c2ccccc2)n1C (centres undefined)	i	17.3	18.6	-14.1	1.7	-10.8	-1.1	3.7
O=C(Oc1cccnc1)c1ccco1	i	0.3	3.0	-0.6	-11.8	-22.4	-13.5	11.2
CC(C)NC(=O)N(C)C[C@H]1Oc2ccc(NC(=O)CCC(F)(F)F)cc2C(=O)N([C@H](C)CO)C[C@@H]1C	·	4.5	4.9	-4.0&-0.9&2.9	-14.9	-8.8	·	·
CC(C)CCNC(=O)C(c1cccnc1)N(Cc1ccccc1)C(=O)Cn1nnc2ccccc21 (centres undefined)	i	1.2	3.9	-7.4	·	·	·	·
N#CC1=C(N)OC2=C(C(=O)CCC2)C1CCc1ccccc1 (centres undefined)	i	-9.1	10.1	8.5	-28.8	-10.4	-7.3	-2.9
COc1ccc(N2C(=O)CC(Sc3nc4c(cc3C#N)CCC4)C2=O)cc1 (centres undefined)	i	16.7	13.0	-15.0	17.0	10.3	-17.7	1.1
Cc1ccc(N2C(=O)C3C4C=CC(CNC(=S)N5CCN(c6cccc(C)c6)C(C)C5)(O4)C3C2=O)cc1 (centres undefined)	i	10.0	-8.7	·	4.6	?	12.9	-10.0
CCCc1cc(=O)oc2cc(C)cc(OC(=O)c3ccco3)c12	i	-7.6	-10.9	·	·	6.9	3.4	-6.7
O=C(CSc1nc2ccccc2c(=O)n1CCC(=O)N1CCCCC1)NCc1ccccc1	i	4.8	-1.9	-13.1	7.5	·	-3.1	17.3
COc1ccc(C2=NS(=O)(=O)N(C)C(C(=O)N3C(C)CCCC3C)=C2)cc1 (centres undefined)	i	-1.2	-6.1	-7.3	·	-4.7	-4.7	6.5
CCc1cc(C(N)=S)ccn1	i	-1.0&5.0	0.0&5.4	-14.0&-10.0	-1.3&21.6	2.2	-3.5	3.5
COc1ccc(C2C(C(C)=O)=C(O)C(=O)N2c2ccccn2)cc1 (centres undefined)	i	1.5	-4.4	-8.9	12.2	-11.2	-2.8	8.9
O=c1[nH]c(CSc2nnc(NCCCN3CCOCC3)s2)nc2cc(Cl)ccc12	i	4.8	-2.1	-7.4	10.0	-7.2	-8.3	-7.5
COc1ccc(-c2ccc3c(c2)C2CC3CCN2S(=O)(=O)c2ccccc2C)cc1 (centres undefined)	·	3.4	-22.0	-17.1	57.0*	·	·	·
CC(C)(C)CC(=O)Nc1nnc(-c2cccs2)s1	i	-12.3	-4.4	-8.4	-128.2	-16.7	-9.6	-5.9
Cc1nn(-c2ccncc2)c2c1C(=O)CC(C)(C)C2Br (centres undefined)	·	-1.3	0.0	-13.5	-12.8	·	·	·
O=C(NCc1cccnc1)c1cc(C2CCCCN2C(=O)c2cccs2)on1 (centres undefined)	·	2.8	5.7	-19.5	-9.2	·	·	·
CCOC(=O)C1CCN(C(=O)c2n[nH]c(=O)c3ccccc23)CC1	i	-1.9	0.5	-19.7	-36.2	-19.1	-9.9	-4.0
COc1ccc(COCCN2CCN(S(=O)(=O)c3ccc(C)cc3)CCC2=O)cc1	i	·	·	·	19.3	-18.4	-13.5	-2.9
COc1cc2c(cc1OC)C(c1c(Cl)cccc1Cl)NC(=O)C2 (centres undefined)	i	-0.6	1.5	-16.0	-18.5	-9.8	-2.0	-10.3
Cc1cccc(C(=O)OCC(=O)Nc2c(C)nn(-c3ccccc3)c2C)c1O	i	-3.8	-2.6	·	·	-16.2	·	·
CCOc1cc2oc(=O)c3c(c2cc1Cl)CCC3	i	4.5	3.2	-10.8	·	-8.8	-6.5	-9.8
CCCCNC(=O)C1(C)CCN1C(=O)c1ccc(OC)c(C(F)(F)F)c1 (centres undefined)	·	2.1	0.5	5.8	-1.5	·	·	·
CCC(=O)NCCc1nc2ccccc2n1Cc1ccccc1	i	3.9	5.4	·	·	-8.3	3.8	0.1
Cc1nc2ccc(C(=O)OCc3nnc(-c4ccc(Br)cc4)o3)cc2nc1C	i	1.3	0.0	34.0	-8.0	-9.3	16.1	9.6
COc1cc(C2/C(=C(\O)c3ccc4c(c3)OCCO4)C(=O)C(=O)N2Cc2ccccc2)ccc1O (centres undefined)	i	2.5	6.1	-12.3	-9.1	-11.9	3.3	15.5
Cc1cc(NC(=O)C2CCN(S(=O)(=O)Cc3ccccc3)CC2)ccc1-n1cnnn1	i	-2.5	-6.9	4.9	0.4	·	2.2	-0.3
COc1cc(OC)c(NC(=O)c2c(-c3ccccc3)noc2C)cc1Cl	i	24.5	0.3	2.5	-8.0	-7.9	-2.6	-9.4
O=S(=O)(NCCc1csc(-c2cccnc2)n1)c1ccc2c(c1)OCCO2	i	-0.5	-2.4	-1.7	·	-2.9	-5.7	10.9

Taken from above:
COc1ccc(COCCN2CCN(S(=O)(=O)c3ccc(C)cc3)CCC2=O)cc1 @ eIF4H inh = -13.5
CCOC(=O)C1CCN(C(=O)c2n[nH]c(=O)c3ccccc23)CC1 @ CSC inhib = -19.1
Cc1nc2ccc(C(=O)OCc3nnc(-c4ccc(Br)cc4)o3)cc2nc1C @ eIF4H inh = 16.1
O=S(=O)(NCCc1csc(-c2cccnc2)n1)c1ccc2c(c1)OCCO2 @ MT1-MMP act inh RFP = -2.4

(list continues)
SMILES	Rce1 inh	MT1-MMP act inh	MT1-MMP act inh RFP	UUG fidelity	Env fusion inh	CSC inhib	eIF4H inh	PABP FP inh
CC1=CS(=O)(=O)CC1Sc1ncn[nH]1 (centres undefined)	i	-0.9	2.7	-21.0	·	-4.4	0.5	-0.7
Cc1cccc(-n2c(-c3ccncc3)n[nH]c2=S)c1C	i	0.8	2.8	·	6.4	-17.9	-3.4	?
CC(=O)NC(=S)Nc1ccc(NC(=O)c2cccnc2)cc1	i	0.0	-5.1	-7.8	-5.4	8.2	-7.1	-3.7
CN(C)c1nc(NCc2ccccc2)nc(SCC(=O)Nc2ccc(Cl)c(Cl)c2)n1	i	-5.9	-7.8	18.1	57.1*	-6.9	-3.1	3.0
COc1ccc(NC(=S)N(CCCN2CCOCC2)Cc2ccccn2)cc1	i	1.2	4.7	-0.3	5.9	-3.8	7.2	3.2
O=C(CN1CCCCC1)Nc1nc(-c2ccc(F)c(F)c2)cs1	·	1.7	3.2	-10.3	-16.9	2.1	-18.2	2.0
CC1(C)Cc2nc3sc4c(N(CCO)CCO)nnnc4c3cc2CO1	i	2.1	1.8	·	-12.5	-11.7	7.1	18.2
COc1ccc(CN(CC(=O)NCC2CCCO2)C(=O)CNS(=O)(=O)c2ccccc2)cc1 (centres undefined)	i	2.0	5.4	7.1	-3.4	·	-13.2	0.9
Cc1ccc(C)c(OCCCC(=O)Nc2ccc(N3CCOCC3)cc2)c1	i	·	·	·	·	·	1.2	-2.0
Cc1ccc(N(CC(=O)NCc2ccc3c(c2)OCO3)S(=O)(=O)c2c(C)noc2C)cc1	i	4.6	-2.0	-10.4	·	3.3	4.3	-1.5
CSc1ccc(S(=O)(=O)N2CCC(C(=O)Nc3ccc(C(N)=O)cc3)CC2)cc1	·	2.1	-0.6	-46.5	-3.1	-7.6	-10.9	5.4
COc1ccccc1-c1nc(-c2ccc(C)nc2OC)no1	i	-0.9	-2.2	-0.8	-133.5	-4.7	-1.5	-3.0

Of the compounds above, these have a thiophene ring, fused or not.
SMILES	Rce1 inh	MT1-MMP act inh	MT1-MMP act inh RFP	UUG fidelity	Env fusion inh	CSC inhib	eIF4H inh	PABP FP inh
Cc1ccc(-c2nc3ncccc3o2)cc1NC(=O)c1cccs1	i	-1.0	0.5	·	-19.4	14.5	-9.7	-7.4
CC(C)(C)CC(=O)Nc1nnc(-c2cccs2)s1	i	-12.3	-4.4	-8.4	-128.2	-16.7	-9.6	-5.9
O=C(NCc1cccnc1)c1cc(C2CCCCN2C(=O)c2cccs2)on1 (centres undefined)	·	2.8	5.7	-19.5	-9.2	·	·	·
CC1(C)Cc2nc3sc4c(N(CCO)CCO)nnnc4c3cc2CO1	i	2.1	1.8	·	-12.5	-11.7	7.1	18.2

Carrying on.
SMILES	Rce1 inh	MT1-MMP act inh	MT1-MMP act inh RFP	UUG fidelity	Env fusion inh	CSC inhib	eIF4H inh	PABP FP inh
Cn1cc(P(=S)(N2CCOCC2)N2CCOCC2)cc1P(=S)(N1CCOCC1)N1CCOCC1	i	1.3	-1.6	-10.4	-22.7	0.4	-0.9	11.3
Cc1c(NC(=O)c2c(N)sc3c2CCCC3)c(=O)n(-c2ccccc2)n1C	i	-1.7	3.4	·	7.9	2.4	7.0	5.5
CC(C)(C)c1ccccc1NC(=S)NCc1ccccc1	i	-1.1	-1.6	·	·	6.9	-1.7	2.7
O=C(COC(=O)Cc1ccc(Cl)cc1)Nc1cc(S(=O)(=O)N2CCOCC2)ccc1N1CCCC1	i	3.7	3.5	·	2.2	9.3	-9.4	2.5
CSc1ccc(/C=N/Nc2nc(C)cc(=O)[nH]2)cc1	i	0.0	0.3	-15.3	-13.2	-5.6	-1.9	22.7
COc1ccccc1OCCNC(=O)CCNC(=O)c1ccccc1OC	·	-2.1	4.1	-4.4	4.1	0.9	·	·
O=C(O)c1ccc(S(=O)(=O)c2ccc3c(c2)C(=O)N(NC(=O)c2ccncc2)C3=O)cc1	i	0.8	-1.3	-11.4	-7.4	-11.2	0.5	-8.5
CCCOC(=O)Cn1cnc2scc(-c3ccc(OC)cc3)c2c1=O	i	-2.7	-0.2	4.6	-12.5	1.1	1.9	0.9
COc1cccc(NC(=O)c2nc3nc(C)cc(C(F)F)n3n2)c1	i	3.6	4.3	-10.0	-9.4	9.5	-4.6	-1.9
COCCCNC(=O)CN(c1cc(Cl)ccc1OC)S(=O)(=O)c1ccc(C)c([N+](=O)[O-])c1	i	-0.3	-1.8	·	-2.5	-5.3	-4.2	6.1
CCNS(=O)(=O)c1ccc(CCC(=O)N2CCN(Cc3ccccc3)CC2)cc1	i	1.1	-2.2	0.7	-4.5	-7.5	-3.0	4.1
CC1=CC(=O)C2=C(C)CC[C@@H]3[C@H](OC(=O)[C@H]3C)[C@@H]12	i	-0.7	3.7	-20.8	67.6*	7.4	-5.6	-8.2
COCCNC(=S)N(CCc1c(C)[nH]c2ccc(C)cc12)Cc1cccnc1	i	0.3	1.2	-29.2	16.5	-4.0	-4.7	-8.6

Compound activity deposited in PubChem by several laboratories.

These rows are one share of the data; rates above refer to the full screens.
